mut p53 SMM: binders of human mutant p53, primary screen, biochemical, small molecule microarray, anti-GST fluorescence; small molecule microarray binding; calls only; actives 0.4% (n = 17,000); AID 624136, 2012;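 active means compounds whose four printed spots each glow above background more than chance allows, each with a p-value under 7%; compounds were printed on slides so no solution concentration is given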;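 further: about 2 pmol printed per array spot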
STAT3 binder: STAT3 binders, primary screen, biochemical, small molecule microarray, single point, set 2; calls only; AID 624138, 2012; Signal transducer and activator of transcription 3 (Homo sapiens), P40763; His-STAT3 binding, anti-His fluorescence; actives 0.2% (n = 17,000);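 active means compounds whose four printed spots each show fluorescence over background unusually high for their array block, chance value under 7%; compounds were printed on slides so no solution concentration is given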;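 further: about 2 pmol printed per array spot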
Target sequence (P40763 whole entry, looked up): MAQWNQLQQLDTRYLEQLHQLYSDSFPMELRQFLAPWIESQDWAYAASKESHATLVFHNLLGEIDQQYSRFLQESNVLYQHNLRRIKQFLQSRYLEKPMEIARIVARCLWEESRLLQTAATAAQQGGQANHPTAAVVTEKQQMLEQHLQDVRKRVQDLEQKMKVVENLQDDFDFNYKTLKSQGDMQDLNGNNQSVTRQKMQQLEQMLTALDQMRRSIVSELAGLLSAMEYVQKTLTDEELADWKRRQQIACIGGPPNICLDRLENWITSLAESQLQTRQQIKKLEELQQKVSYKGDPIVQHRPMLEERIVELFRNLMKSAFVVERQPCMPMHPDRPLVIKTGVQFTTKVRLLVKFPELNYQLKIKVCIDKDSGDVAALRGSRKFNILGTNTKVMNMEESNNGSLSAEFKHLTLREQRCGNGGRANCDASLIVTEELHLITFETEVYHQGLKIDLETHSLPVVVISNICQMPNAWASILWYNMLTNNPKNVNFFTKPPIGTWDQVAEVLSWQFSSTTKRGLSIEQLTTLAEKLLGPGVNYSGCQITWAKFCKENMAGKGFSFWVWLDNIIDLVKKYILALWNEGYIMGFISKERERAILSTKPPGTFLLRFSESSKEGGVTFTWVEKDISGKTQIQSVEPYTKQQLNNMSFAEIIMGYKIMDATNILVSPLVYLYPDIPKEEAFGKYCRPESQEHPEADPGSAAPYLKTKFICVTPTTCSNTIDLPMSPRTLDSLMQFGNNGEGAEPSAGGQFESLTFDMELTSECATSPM
Myc binder: binders of human c-Myc, primary screen, biochemical, small molecule microarray, anti-His fluorescence; Myc proto-oncogene protein (Homo sapiens), P01106; His-c-Myc binding; calls only; actives 1.5% (n = 17,000); AID 624141, 2012;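 active means spot fluorescence over background with P-value below 7% in all four replicate spots, showing protein binding; compounds were printed on slides so no solution concentration is given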;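 further: score is binary with 100 for all four spots passing and 0 otherwise; about 2 pmol printed per array spot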
ID4 binder: binders of human ID4 protein, primary screen, biochemical, small molecule microarray, single point. DNA-binding protein inhibitor ID-4 (Homo sapiens), P47928. Flag-ID4 binding, fluorescence F/B. calls only. actives 1.2% (n = 31,000);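 active means spot signal over background at p below 0.07 in all four prints; compounds were printed on slides so no solution concentration is given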;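 further: a binder raises fluorescence above local background on the spot; about 2 pmol printed per array spot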
Target sequence (P47928 whole entry, looked up): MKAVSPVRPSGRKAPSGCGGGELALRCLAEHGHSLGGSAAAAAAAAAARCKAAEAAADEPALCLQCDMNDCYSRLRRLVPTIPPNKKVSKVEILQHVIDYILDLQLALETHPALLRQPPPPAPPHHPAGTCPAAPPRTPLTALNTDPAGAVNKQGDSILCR
Calls only; i = inactive; / = no result given; + = active, no number. Hits appear at their usual frequency, and some 3.7% of all compounds hit somewhere here.

# | molecule | mut p53 SMM | STAT3 binder | Myc binder | ID4 binder
1 | CC(=O)[C@@]12O[C@]3(COC[C@H](c4ccccc4)N3C1=O)[C@@H]1C(=O)N(c3ccccc3)C(=O)[C@@H]12 | i | i | i | /
2 | CC(=O)c1ccc(NC(=O)Cn2cnc3ccccc3c2=O)cc1 | i | i | i | i
3 | C[C@@H]1CN([C@@H](C)CO)C(=O)Cc2cc(NC(=O)Nc3ccc4c(c3)OCO4)ccc2O[C@@H]1CN(C)C | i | i | i | i
4 | C[C@H](CO)N1C[C@H](C)[C@H](CN(C)C(=O)Nc2ccc(C(F)(F)F)cc2)Oc2c(cccc2N(C)C)C1=O | i | i | i | i
5 | O=C(Oc1ccc(N(Cc2ccco2)C2=NS(=O)(=O)c3ccccc32)cc1)c1ccco1 | i | i | i | i
6 | C[C@@H]1CN([C@@H](C)CO)C(=O)c2cc(NS(=O)(=O)c3cccs3)ccc2O[C@@H]1CN(C)C | i | i | i | i
7 | C[C@@H]1CN([C@H](C)CO)C(=O)c2cc(NC(=O)C3CC3)ccc2O[C@H]1CN(C)S(=O)(=O)c1cn(C)cn1 | i | i | i | i
8 | C[C@H]1CN([C@@H](C)CO)C(=O)c2cccc(NS(=O)(=O)c3cccs3)c2O[C@@H]1CN(C)Cc1ccc(Cl)c(Cl)c1 | i | i | i | i
9 | C[C@@H]1CCCCO[C@@H](CN(C)C(=O)Nc2ccccc2)[C@@H](C)CN([C@@H](C)CO)C(=O)c2cc(NC(=O)Cc3ccccc3)ccc2O1 | i | i | i | i
10 | COc1ccc(S(=O)(=O)N(C)C[C@@H]2Oc3ccc(NC(=O)Nc4ccc5c(c4)OCO5)cc3C(=O)N([C@@H](C)CO)C[C@@H]2C)cc1 | i | i | i | i
11 | COc1ccccc1CN(C)C[C@@H]1OCc2cn(nn2)CCCC(=O)N([C@@H](C)CO)C[C@@H]1C | i | i | i | i
12 | C[C@H]1CN([C@@H](C)CO)C(=O)Cc2cc(NC(=O)Nc3cccc4ccccc34)ccc2O[C@H]1CN(C)CC1CC1 | i | i | i | i

Pulled by structure from the list above (2):
# | molecule | mut p53 SMM | STAT3 binder | Myc binder | ID4 binder
7 | C[C@@H]1CN([C@H](C)CO)C(=O)c2cc(NC(=O)C3CC3)ccc2O[C@H]1CN(C)S(=O)(=O)c1cn(C)cn1 | i | i | i | i
3 | C[C@@H]1CN([C@@H](C)CO)C(=O)Cc2cc(NC(=O)Nc3ccc4c(c3)OCO4)ccc2O[C@@H]1CN(C)C | i | i | i | i

The list continues:
# | molecule | mut p53 SMM | STAT3 binder | Myc binder | ID4 binder
13 | O=C(CCc1ccc(O)cc1)c1c(O)c([C@@H]2O[C@H](CO)[C@@H](O)[C@H](O)[C@H]2O)c(O)c([C@@H]2O[C@H](CO)[C@@H](O)[C@H](O)[C@H]2O)c1O | i | i | i | /
14 | C[C@@H]1CC[C@]2(C(=O)O)CC[C@]3(C(=O)O)C(=CCC4[C@@]5(C)CC[C@H](O[C@@H]6O[C@@H](C)[C@H](O[C@@H]7O[C@H](CO)[C@@H](O)[C@H](O)[C@H]7O)[C@@H](O)[C@H]6O)C(C)(C)C5CC[C@]43C)C2[C@H]1C (some centres not stated) | i | i | i | i
15 | CNC[C@H]1OCCCC[C@H](C)Oc2ccc(NC(=O)CCCN(C)C)cc2C(=O)N([C@H](C)CO)C[C@@H]1C | i | i | i | i
16 | C=C1C(=O)O[C@@H]2[C@H]3C(=C)[C@@H](O[C@@H]4O[C@H](CO)[C@@H](O)[C@H](O)[C@H]4O)C[C@H]3C(=C)C[C@@H](O)[C@@H]12 | i | i | i | i
17 | N#Cc1c(C(F)(F)F)cc(-c2cccs2)nc1SCC(O)COc1ccc(Cl)cc1 (configuration not stated) | i | i | i | i
18 | Cc1noc(C)c1S(=O)(=O)Nc1ccc2c(c1)C(=O)N([C@H](C)CO)C[C@H](C)[C@H](CN(C)C(=O)c1ccncc1)OCCCC[C@H](C)O2 | i | i | i | i
19 | C[C@H](CO)N1C[C@H](C)[C@H](CN(C)S(=O)(=O)c2cn(C)cn2)Oc2ccc(NC(=O)NC3CCCCC3)cc2C1=O | i | i | i | i
20 | C[C@H](CO)N1C[C@H](C)[C@@H](CN(C)Cc2ccc(Cl)c(Cl)c2)Oc2ccc(NC(=O)CCN3CCOCC3)cc2CC1=O | i | i | i | /
21 | Cc1nc(SCC(=O)Nc2cccc(C(=O)O)c2)[nH]c(=O)c1C | i | i | i | i
22 | C[C@@H]1CN([C@@H](C)CO)C(=O)c2cccc(N(C)C)c2O[C@@H]1CN(C)Cc1ccccc1 | i | i | i | i
23 | Cc1noc(C)c1NC(=O)N(C)C[C@H]1Oc2ccc(NC(=O)Cn3cnnn3)cc2C(=O)N([C@@H](C)CO)C[C@@H]1C | i | i | i | i
24 | C[C@H](CO)N1C[C@H](C)[C@@H](CN(C)C(=O)Nc2ccc(F)cc2)Oc2ccc(NC(=O)Nc3ccccc3)cc2C1=O | i | i | i | /

New compounds follow:
# | molecule | mut p53 SMM | STAT3 binder | Myc binder | ID4 binder
25 | COc1ccc2c(c1)O[C@H]1c3ccc(O)cc3OC[C@@H]21 | i | i | i | i
26 | C[C@H]1CN([C@@H](C)CO)C(=O)c2cccc(NS(=O)(=O)c3ccccc3)c2O[C@H]1CN(C)C(=O)Nc1ccc2c(c1)OCO2 | i | i | i | i
27 | O=C(O)COc1cccc(NC(=O)c2ccc(I)cc2)c1 | i | i | i | i
28 | C[C@H](CO)N1C[C@H](C)[C@@H](CN(C)Cc2ccncc2)OCCCC[C@H](C)Oc2ccc(N(C)C)cc2C1=O | i | i | i | i
29 | COc1cccc(/C=C2\SC(=S)N(CCCC(=O)O)C2=O)c1 | i | i | i | i
30 | C[C@H](CO)N1C[C@H](C)[C@H](CN(C)C(=O)Nc2ccc(F)cc2)Oc2c(NC(=O)C3CCOCC3)cccc2C1=O | i | i | i | i
31 | C=C1C2CCC3[C@]4(C)CCC[C@@](C)(C(=O)O)C4CC[C@]3(C2)[C@H]1OC(C)=O (some centres not stated) | i | i | i | i
32 | COc1cc(C2OCC3C(c4ccc5c(c4)OCO5)OC(=O)C23)ccc1O (configuration not stated) | i | i | i | i
33 | COc1ccc(S(=O)(=O)Nc2ccc3c(c2)C(=O)N([C@H](C)CO)C[C@H](C)[C@@H](CN(C)Cc2ccc(C(F)(F)F)cc2)O3)cc1 | i | i | i | i
34 | C[C@H](CO)N1C[C@H](C)[C@H](CN(C)C(=O)Nc2ccccc2)Oc2ncccc2C1=O | i | i | i | i
35 | Cc1noc(C)c1S(=O)(=O)N(C)C[C@H]1OCCCC[C@@H](C)Oc2ccc(NC(=O)NC(C)C)cc2C(=O)N([C@@H](C)CO)C[C@H]1C | i | i | + | i
36 | COC(=O)c1ccc(NC(=O)CCC(=O)c2ccc(OC)cc2)cc1 | i | i | i | i

Filtered by structure: the compounds so far containing a CF3 group.
# | molecule | mut p53 SMM | STAT3 binder | Myc binder | ID4 binder
4 | C[C@H](CO)N1C[C@H](C)[C@H](CN(C)C(=O)Nc2ccc(C(F)(F)F)cc2)Oc2c(cccc2N(C)C)C1=O | i | i | i | i
17 | N#Cc1c(C(F)(F)F)cc(-c2cccs2)nc1SCC(O)COc1ccc(Cl)cc1 (configuration not stated) | i | i | i | i
33 | COc1ccc(S(=O)(=O)Nc2ccc3c(c2)C(=O)N([C@H](C)CO)C[C@H](C)[C@@H](CN(C)Cc2ccc(C(F)(F)F)cc2)O3)cc1 | i | i | i | i

Next section.
# | molecule | mut p53 SMM | STAT3 binder | Myc binder | ID4 binder
37 | C[C@@H]1CN([C@H](C)CO)C(=O)CCCn2nncc2CO[C@@H]1CN(C)Cc1ccc(Oc2ccccc2)cc1 | i | i | i | +
38 | C[C@H]1CN([C@@H](C)CO)C(=O)c2cc(NS(=O)(=O)c3cccs3)ccc2O[C@H]1CN(C)C | i | i | i | i
39 | C[C@@H]1CCCCO[C@H](CN(C)S(=O)(=O)c2cccs2)[C@@H](C)CN([C@@H](C)CO)C(=O)c2cc(NS(=O)(=O)c3cccs3)ccc2O1 | i | i | i | i
40 | CC(C)NC(=O)N(C)C[C@@H]1Oc2ccc(NC(=O)C3CC3)cc2C(=O)N([C@@H](C)CO)C[C@H]1C | i | i | i | i
41 | CC1OC(OC2C(O)C(OCCc3ccc(O)c(O)c3)OC(CO)C2OC(=O)/C=C/c2ccc(O)c(O)c2)C(OC2OCC(O)C(O)C2O)C(O)C1O (configuration not stated) | i | i | i | /
42 | COc1ccc(S(=O)(=O)N(C)C[C@H]2Oc3c(NS(=O)(=O)c4c(C)noc4C)cccc3C(=O)N([C@H](C)CO)C[C@H]2C)cc1 | i | i | i | i
43 | C[C@H](CO)N1C[C@H](C)[C@H](CN(C)S(=O)(=O)c2ccc(Cl)cc2)OCCCC[C@H](C)Oc2ccc(NS(C)(=O)=O)cc2C1=O | i | i | i | /
44 | C=C1C(=O)O[C@@H]2/C=C(/CO[C@@H]3O[C@H](CO)[C@@H](O)[C@H](O)[C@H]3O)CC/C=C3\C[C@H](OC3=O)[C@@H]12 | i | i | i | /
45 | CCc1nc(SCC(=O)Nc2ccc(C)cc2)n[nH]1 | i | i | i | i
46 | C[C@@H]1CN([C@H](C)CO)C(=O)Cc2cc(NC(=O)CCN3CCOCC3)ccc2O[C@@H]1CN(C)S(=O)(=O)c1cn(C)cn1 | i | i | i | i
47 | C[C@H](CO)N1C[C@H](C)[C@@H](CN(C)S(C)(=O)=O)Oc2c(NC(=O)c3cnccn3)cccc2C1=O | i | i | i | /
48 | C[C@@H]1CN([C@@H](C)CO)C(=O)CCCn2nncc2CO[C@H]1CN(C)Cc1ccc2c(c1)OCCN2C | i | i | i | i

The results go on.
# | molecule | mut p53 SMM | STAT3 binder | Myc binder | ID4 binder
49 | CCn1c(SCC(=O)Nc2ccccc2C)nc2ccccc2c1=O | i | i | i | i
50 | C[C@@H]1CN([C@@H](C)CO)C(=O)c2cccc(NC(=O)C3CCOCC3)c2O[C@@H]1CN(C)S(=O)(=O)c1cccs1 | i | i | i | i
51 | COC(=O)c1c(NC(=O)C2CC(=O)NN2Cc2ccccc2)sc2c1CCC2 (configuration not stated) | i | i | i | i
52 | COc1ccccc1-c1nc(SCC(=O)N2CCOCC2)n[nH]1 | i | i | i | i
53 | COc1ccc(CN(C)C[C@H]2Oc3ccc(NC(=O)Nc4cccc5ccccc45)cc3C(=O)N([C@H](C)CO)C[C@@H]2C)cc1 | i | i | i | i
54 | C[C@H]1CN([C@@H](C)CO)C(=O)c2cccc(NC(=O)NC3CCCCC3)c2O[C@H]1CN(C)C(=O)Nc1ccc(F)cc1 | i | i | i | i
55 | Cc1ccc(S(=O)(=O)N(C)CC(=O)Nc2cccc(C(F)(F)F)c2)cc1 | i | i | i | i
56 | OCCN(CCO)c1nc(-c2ccccc2)nc2sc(-c3ccccc3)cc12 | i | i | i | i
57 | C[C@@H]1CCCCO[C@H](CN(C)S(=O)(=O)c2ccccc2)[C@H](C)CN([C@H](C)CO)C(=O)c2cc(NC(=O)Nc3ccccc3)ccc2O1 | i | i | i | i
58 | C[C@@H]1CCCCO[C@@H](CN(C)Cc2ccc(C(=O)O)cc2)[C@@H](C)CN([C@H](C)CO)C(=O)c2cc(NC(=O)C3CCCCC3)ccc2O1 | i | i | i | i
59 | CC(C)C(=O)Nc1ccccc1C(=O)OCc1cccc([N+](=O)[O-])c1 | i | i | i | i
60 | CCOC(=O)c1ccccc1NC(=O)c1ccc(Cl)c(S(=O)(=O)N2CCOCC2)c1 | i | i | i | i

Following part:
# | molecule | mut p53 SMM | STAT3 binder | Myc binder | ID4 binder
61 | O=C1O[C@H](c2ccccc2)[C@H](c2ccccc2)N2[C@H]1[C@@H](C(=O)N1CCCCCCC1)[C@]1(C(=O)Nc3ccc(C#CC4=CCCCC4)cc31)[C@H]2c1ccccc1OCCO | + | i | + | i
62 | Cc1noc(C)c1S(=O)(=O)N(C)C[C@@H]1OCCCC[C@H](C)Oc2ccc(NS(C)(=O)=O)cc2C(=O)N([C@@H](C)CO)C[C@H]1C | i | i | i | i
63 | Cc1noc(C)c1NC(=O)N(C)C[C@H]1Oc2ccc(NC(=O)Nc3ccc4c(c3)OCO4)cc2C(=O)N([C@H](C)CO)C[C@H]1C | i | i | i | i
64 | Cc1c(NC(=O)CC#N)c(=O)n(-c2ccccc2)n1C | i | i | i | i
65 | Cc1noc(C)c1NC(=O)N(C)C[C@@H]1Oc2ccc(NC(=O)Nc3ccc4c(c3)OCO4)cc2CC(=O)N([C@H](C)CO)C[C@@H]1C | i | i | i | i
66 | CC(C)(O[C@@H]1O[C@H](CO)[C@@H](O)[C@H](O)[C@H]1O)[C@@H]1Oc2cc3oc(=O)ccc3cc2[C@H]1O | i | i | i | /
67 | CN1CCN(C(=O)C2=C[C@H](C3CC3)C[C@H](OCc3ccc(CO)cc3)O2)CC1 | i | i | i | /
68 | C[C@H]1CCCCO[C@@H](CN(C)Cc2ccncc2)[C@@H](C)CN([C@@H](C)CO)C(=O)c2cc(NS(C)(=O)=O)ccc2O1 | i | i | i | i
69 | COc1ccc(N(CC(=O)Nc2cc(Cl)ccc2OC)S(C)(=O)=O)cc1 | i | i | i | i

Screening data deposited in PubChem by Broad Institute.
